Bioassay records deposited in PubChem by several laboratories.
HIV Env fusion – HIV envelope-mediated fusion inhibition; inhibition, % at 12.3 µM; HeLa-JRFL Env/CEM21 cell fusion, luciferase; AID 651610; 360,000 tested, 1.1% active;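 active means mean replicate inhibition score of at least 50 and every replicate individually at or above 50; inconclusive means only one of the two criteria met; inactive means mean below 50 and not all replicates reaching 50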;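 further: 0% = plate neutral controls and 100% = maraviroc near 300 nM; one replicate is shown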
CSC inhib – blocks cancer stem cells; cancer stem cell-like cells viability, luminescence; inhibition, % at 7.5 µM; 300,000 tested, 1.1% active;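 active means mean at 75% or more and at least half the replicates too; inconclusive means mean and replicates disagree; tested in HMLE shEcad cells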;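 further: 0% = median of negative and 100% = median of positive control wells; the first replicate is given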
MT1-MMP act inh – inhibitors of human MT1-MMP activation; P50281; HT1080 RFP-PRO-GFP cells, GFP/RFP ratio fluorescence, overnight; percent of plate control window, DMSO zero; GFP/RFP ratio change, % at 20 µM; 360,000 tested, 0.061% active; AID 651647;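 active means GFP/RFP ratio change of at least 30% with cell ATP level not reduced by more than half and red fluorescence within 50% of control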; further: strong numbers were not always called active
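Material – HT1080 RFP-PRO-GFP cells · Control set – DMSO wells and RFP-L50D-GFP cells · Incubation – overnight cell settling, then overnight compound exposure, 37 °C, 5% CO2 · Compound dosing – single-point 20 µM compound, 1% DMSO · Read-out – GFP/RFP fluorescence ratio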
PABP polyA inh – blocks human PABP binding to poly(A) RNA. inhibition, % at 35 µM. P11940. 290,000 tested, 1% active. fluorescence polarization. AID 2014;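 active means 50% or more with normal probe brightness, or confirmed in later tests; inconclusive means above 50% with abnormal brightness, or retests that disagree; inactive means below 50% or failed in later tests; about a fifth of its hits are not listed in these tables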;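 further: calls also rest on retests at 20 µM and on dose response follow-up; controls were probe without protein and protein plus probe with vehicle; some compounds called inactive have numbers as strong as hits; many hits fall short of the cut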
Target sequence (P11940 whole entry, looked up): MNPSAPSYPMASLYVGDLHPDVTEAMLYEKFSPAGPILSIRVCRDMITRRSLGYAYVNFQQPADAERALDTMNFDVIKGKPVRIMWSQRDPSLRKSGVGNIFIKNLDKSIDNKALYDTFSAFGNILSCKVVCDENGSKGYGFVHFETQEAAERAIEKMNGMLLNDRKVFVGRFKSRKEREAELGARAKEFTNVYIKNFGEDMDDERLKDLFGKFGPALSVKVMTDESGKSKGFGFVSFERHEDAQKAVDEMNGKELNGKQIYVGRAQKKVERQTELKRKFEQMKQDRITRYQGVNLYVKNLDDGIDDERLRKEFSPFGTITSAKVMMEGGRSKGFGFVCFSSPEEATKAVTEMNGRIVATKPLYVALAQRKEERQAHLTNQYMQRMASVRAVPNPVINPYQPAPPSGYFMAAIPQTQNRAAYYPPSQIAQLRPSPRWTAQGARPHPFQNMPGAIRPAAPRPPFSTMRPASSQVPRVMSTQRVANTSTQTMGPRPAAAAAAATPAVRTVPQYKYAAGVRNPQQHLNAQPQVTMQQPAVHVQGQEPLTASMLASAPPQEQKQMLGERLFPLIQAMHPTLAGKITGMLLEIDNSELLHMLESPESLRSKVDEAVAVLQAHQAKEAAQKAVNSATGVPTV
UUG fidelity – alters start codon recognition fidelity in yeast | S. cerevisiae UUG-firefly luciferase reporter, luminescence/redox ratio | activity score, % at 18.7 µM | 350,000 tested, 0.13% active | AID 602363;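 active means replicate mean at a twofold rise or more, about +100% in these data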;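 further: firefly luciferase made from a UUG start codon reports start codon fidelity; reporter light over untreated wells divided by growth signal over untreated wells; some hits fall short of that in this replicate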
eIF4H inh – inhibitors of RNA binding by human eIF4H; AID 2012; 290,000 tested, 0.94% active; eIF4H fluorescence polarization binding assay; Q15056; inhibition, % at 35 µM;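 active means 50% or more with normal probe brightness, or confirmed in later tests; inconclusive means above 50% with abnormal brightness, or retests that disagree; inactive means below 50% or failed in later tests; about a fifth of its hits are not listed in these tables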;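 further: calls also rest on retests at 20 µM and on dose response follow-up; 0% = protein and probe with vehicle and 100% = probe without protein; strong numbers were not always called active; many hits fall short of the cut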
Rce1 inh – blocks yeast Ras-converting enzyme | Q03530 | yeast membranes, quenched prenylated peptide cleavage fluorescence | calls only | 290,000 tested, 0.27% active;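 active means fall in fluorescence gain of 50% or more versus controls, with final raw signal at or below 3038400; inconclusive means same 50% fall but final raw signal above 3038400; inactive means fall in fluorescence gain under 50%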;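 further: plate controls were neutral control wells for no effect and wells lacking membranes for full effect; tested at 10 µM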
MT1-MMP act inh RFP – recorded beside MT1-MMP act inh, whose call it bears; RFP signal change, %; measured here: RFP expression control read;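 0 = vehicle wells; hits needed this value within 50% of zero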
* marks the source's active call; other numbers are inactive results; i = inactive; ? = inconclusive; · = not tested or not shown. Some of the compounds tested; rates above refer to the full screens.

SMILES	HIV Env fusion	CSC inhib	MT1-MMP act inh	MT1-MMP act inh RFP	PABP polyA inh	UUG fidelity	eIF4H inh	Rce1 inh
CCOC(=O)C1=CCN(S(=O)(=O)c2ccccc2Cl)C1c1ccccc1 (stereo unspecified)	1.8	·	0.1	-5.4	·	3.9	·	·
C/C(=N\N1C(=O)CSC1=S)c1ccc(Br)cc1	-7.0	18.6	9.5	27.3	21.6	·	-4.9	i
CCOC(=O)c1c(S(=O)(=O)NCC2CCN(Cc3cccc(F)c3)CC2)c(C)n(C)c1C	0.0	-10.2	-1.8	1.1	-2.6	0.0	-9.0	i
Cc1cc(C)c(S(=O)(=O)Nc2cnc3ccccc3c2)c(C)c1	4.9	-26.1	-0.5	-5.2	-0.9	3.8	-4.1	i
N#Cc1cccc(NC(=O)c2cc(C3CCCCN3C(=O)c3ccccc3)on2)c1 (stereo unspecified)	30.4	·	0.7	1.6	·	5.7	·	·
NS(=O)(=O)c1cccc(NC(=O)COC(=O)CNC(=O)c2ccc(-c3ccccc3)cc2)c1	-0.2	·	2.2	-1.5	·	9.9	·	·
Cc1c(C)c2c(OCC(=O)N3CCC[C@H]3C(=O)O)cc3c(c2oc1=O)CCC(C)(C)O3	·	-13.3	4.1	3.0	24.4	9.1	-3.5	?
Cc1noc(C)c1NC(=O)Nc1ccc2c(c1)C(=O)N([C@H](C)CO)C[C@H](C)[C@@H](CN(C)S(=O)(=O)c1c(C)noc1C)O2	-2.1	1.4	-4.9	2.4	·	-5.3	·	·
COC(=O)CNC(=O)/C=C/c1cc(Br)ccc1OC	2.7	-12.1	0.2	-2.8	-8.9	-6.5	-6.5	i
N/C(=N\OC(=O)c1cccs1)c1ccccc1	-64.4	-4.2	-0.6	2.2	6.3	-52.7	-3.0	i
O=C(NC(=S)Nc1ccc2[nH]c(=O)[nH]c2c1)c1ccccc1Cl	11.9	-17.0	-1.0	-0.5	9.6	-12.2	1.8	i
COc1ccc(OCCCC(=O)NNC(=O)CCN2CCN(c3ccccc3)CC2)cc1	·	5.0	-2.0	2.4	0.2	3.4	-0.9	i
COC(=O)c1c(C)[nH]c(C)c1-c1cccc([N+](=O)[O-])c1	6.3	5.2	-0.8	-3.9	8.5	·	10.9	i
COC(=O)c1ccc2c(c1)C(C)(C)C(/C=C/c1ccc(OC)c(OC)c1OC)=[N+]2C	·	-2.6	50.7*	48.3*	3.3	·	18.1	i
O=C(NC1(C(F)(F)F)NC(=O)N(c2ccc(F)cc2)C1=O)c1ccncc1 (stereo unspecified)	·	-1.8	-2.7	0.4	6.5	8.1	6.9	i
O=C(O)CCn1cc(/C=C/C(=O)c2ccc(Cl)cc2)c(-c2ccc(Br)cc2)n1	7.9	105.8*	2.6	-6.3	0.6	·	-1.6	·
O=C(O)/C=C/c1ccc(S(=O)(=O)Nc2ccc(OCc3ccccc3)cc2)cc1	9.9	9.4	-0.9	-0.5	38.0	-3.6	29.5	i
COc1ccc(C(C)(C)C)cc1NC(=O)CCn1[nH]c(=O)ccc1=O	·	-22.4	1.1	1.4	·	-2.1	·	·
CCN(c1ccccc1)S(=O)(=O)c1ccc(C(=O)Nc2ccc(C)cn2)cc1	9.1	-0.8	-5.9	-17.2	·	-2.9	·	i
O=C(CN(Cc1ccccc1)C(=O)c1ccc2c(c1)OCCO2)NCc1ccc2c(c1)OCO2	·	37.1	1.1	0.6	0.9	12.0	3.1	i
COC(=O)c1sccc1NC(=O)c1ccc(OC)c(OC)c1	-118.5	-0.1	7.9	-7.0	-2.2	-10.9	4.6	·
CCc1ccc(OCc2nnc(SCC(=O)N3CCN(c4ccccc4)CC3)o2)cc1	-29.7	-9.0	0.6	-2.3	3.1	-2.9	-4.7	i
COc1ccc(NC(=O)C(NCC(C)C)c2ccccc2)cc1Cl (stereo unspecified)	5.1	-8.3	-3.6	2.4	-14.1	·	-2.6	i
CCC1Oc2ccccc2N(CC(=O)NCCCN2CCC(C)CC2)C1=O (stereo unspecified)	·	-3.2	-2.5	2.8	-3.0	-11.2	-7.8	i
CCOC(=O)N1CCN(CCC(=O)Nc2ccc(C)cc2)CC1	3.0	-7.1	1.6	-1.2	-12.1	-23.7	1.1	i

Arranged by value in MT1-MMP act inh RFP (low to high): some entries from above
Structure,MT1-MMP act inh RFP
O=C(NC1(C(F)(F)F)NC(=O)N(c2ccc(F)cc2)C1=O)c1ccncc1 (stereo unspecified),0.4
N#Cc1cccc(NC(=O)c2cc(C3CCCCN3C(=O)c3ccccc3)on2)c1 (stereo unspecified),1.6
N/C(=N\OC(=O)c1cccs1)c1ccccc1,2.2

(next part)
SMILES	HIV Env fusion	CSC inhib	MT1-MMP act inh	MT1-MMP act inh RFP	PABP polyA inh	UUG fidelity	eIF4H inh	Rce1 inh
COc1ccccc1C(=O)Nn1c(C2CCC2)nc2ccccc2c1=O	12.2	·	-4.1	4.8	-1.3	-1.3	1.6	i
COCc1nnc(NS(=O)(=O)c2ccccc2)s1	·	17.4	6.6	3.3	-3.9	-18.5	-7.2	i
NS(=O)(=O)c1ccc(CNC(=O)c2ccc(C(=O)c3ccccc3)cc2)cc1	6.6	-6.0	-0.5	-3.3	·	-12.2	·	·
CNC(=O)CSc1nc2c([nH]c3ccccc32)c(=O)n1CCOC	-8.4	-4.5	6.7	6.6	0.7	·	-1.3	i
O=C(Nc1cccc(-c2cnc3ccccc3n2)c1)c1ccco1	·	3.7	5.3	-0.3	6.9	·	-4.4	i
Cc1ccc(-n2c(SCC(=O)NC3CCS(=O)(=O)C3)nc3ccccc3c2=O)cc1C (stereo unspecified)	2.3	-8.7	-4.4	-2.0	·	-8.5	·	i
CC1CCCN(C(=O)C(=O)c2cn(CC(=O)N3CCCCCC3)c3ccccc23)C1 (stereo unspecified)	-6.5	·	-3.6	-1.1	-1.0	-5.2	15.2	i
CC(C)CNC(=O)COC(=O)c1cccc(S(=O)(=O)NCC(F)(F)F)c1	-11.8	-11.1	-1.3	3.1	-6.0	-3.5	-1.7	i
O=C(CCCCCn1c(=O)[nH]c2ccccc2c1=O)N1CCN(Cc2ccc3c(c2)OCO3)CC1	8.4	-5.3	-2.3	-6.3	8.0	0.4	4.4	i
CCOC(=O)N1CCC(NC(=O)CCC(=O)N2CC(C)Oc3ccccc32)CC1 (stereo unspecified)	·	10.7	1.8	2.4	-3.5	-8.5	-7.9	i
COc1ccc(C2=CSC3=NCCN23)cc1OC	19.6	-5.4	-6.9	2.9	3.0	-17.2	0.1	i
Cc1ccccc1OCC(=O)OCC(=O)NC1CC1	1.3	-14.2	5.0	-0.6	·	-8.4	·	·
CCCCCCNC(=O)CC(c1ccccc1)c1cc(Br)ccc1O (stereo unspecified)	·	·	-9.8	-17.4	11.0	-17.2	-2.2	i
Nc1cccc(C(=O)OCC(=O)NC2CCCc3ccccc32)c1 (stereo unspecified)	-1.5	·	3.9	0.4	6.5	·	-5.2	i
COc1ccc(C(=O)/C=C/Nc2ccc(C)cn2)cc1OC	·	17.4	-3.7	3.1	-0.9	-4.0	1.5	i
O=C(Oc1ccc(Br)cc1C(=S)N1CCOCC1)c1ccc(F)cc1	·	-3.4	-3.8	-0.2	-8.6	-8.9	0.0	i
N#Cc1ccc(CC(=O)c2ccccc2)[nH]c1=O	-8.4	·	-29.5	18.2	·	-13.4	·	·
CCCNC(=O)c1ccc2c(c1)nc(C)n2-c1cccc(Cl)c1	25.9	-14.8	3.4	-0.8	-2.7	-8.7	5.7	i
COCCn1c(=O)[nH]c2cc(C(=O)Nc3ccc(OC)c(Cl)c3)ccc2c1=O	·	-13.9	0.7	-0.2	7.3	1.8	-2.3	i
CCOC(=O)c1oc2c(c1C)C(=O)CCC2	-54.8	-7.1	-6.7	1.4	1.9	0.4	-1.7	i
O=C(Nc1ccc2c(c1)OCO2)OCc1ccccc1	·	2.4	0.4	-5.9	1.4	-20.9	-2.6	i
COc1ccc(C(C(=O)NC(C)(C)C)N(C(=O)CCC(=O)Nc2ccccn2)C2CCCCC2)cc1 (stereo unspecified)	9.3	-5.8	-0.1	3.3	-1.9	-6.0	-2.3	i
CN1CCCC1CCNc1ccc2sc3ccccc3c(=O)c2c1 (stereo unspecified)	-74.9	44.5	-70.0	0.0	·	-4.9	·	i
CCOC(=O)c1c(C)[nH]c(C(=O)COc2ccc3ccc(=O)oc3c2)c1C	·	-7.7	-2.7	-1.8	·	-2.6	·	·
O=C(CNC(=O)c1ccc2c(c1)OCCO2)N/N=C/c1ccc(O)cc1O	3.2	15.2	3.2	4.5	3.4	-10.8	32.3	i
Further structures follow:
SMILES	HIV Env fusion	CSC inhib	MT1-MMP act inh	MT1-MMP act inh RFP	PABP polyA inh	UUG fidelity	eIF4H inh	Rce1 inh
Nc1ccc(-c2nc3cc(N)ccc3n2CCO)cc1	4.1	-4.0	-10.7	-9.1	6.1	·	-2.5	i
CCC/C=C/c1ccc(CN2C(C)C(=O)N(Cc3cn(CCC4OCCO4)nn3)CCS2(=O)=O)cc1 (stereo unspecified)	2.6	·	3.5	-1.9	·	21.9	·	·
COc1ccccc1CNc1ccc2c(c1)CCC2	-24.7	6.8	-26.0	3.1	17.0	-10.4	10.7	i
O=[N+]([O-])c1cccc2nc(-c3ccccc3)c(-c3ccccc3)nc12	-13.3	54.4	-10.5	-5.3	5.7	-6.0	-13.0	i
Cc1cc2ncn(S(=O)(=O)c3ccc(S(=O)(=O)N4CCOCC4)cc3)c2cc1C	?	-3.6	-0.5	0.2	15.2	-17.8	5.5	·
O=C(NC(=S)Nc1cc([N+](=O)[O-])ccc1O)c1ccc2c(c1)OCO2	·	6.8	3.0	-3.5	9.1	-35.6	16.7	i
Cc1ccc(N(CN2CCCC2=O)C(=O)c2ccccc2)cc1	-6.4	-22.5	-0.6	2.1	8.9	·	-3.7	i
CC1CCCC(NC(=O)CCCn2c(=O)[nH]c3cc(Cl)ccc3c2=O)C1C (stereo unspecified)	-11.3	-16.2	8.5	7.3	6.3	3.0	5.2	i
C=C(C)COc1ccc(-c2[nH]ncc2Oc2ccccc2OCC)c(O)c1	·	?	-2.8	5.0	-1.7	-7.7	-0.7	i
Cc1c(NC(=O)c2ccc(S(=O)(=O)Nc3ccccc3F)cc2)c(=O)n(-c2ccccc2)n1C	7.5	-28.3	-0.2	2.2	·	-6.7	·	·
CSc1ccc(C(=S)N2CCN(Cc3ccccc3)CC2)cc1	-59.2	18.7	-0.8	-2.9	5.9	-13.1	-11.1	i
Cc1ccn2c(=O)nc(SCC(=O)NCc3ccccc3Cl)nc2c1	-14.1	-2.6	-4.5	5.1	·	-6.9	·	i
CCNC(=S)N/N=C/c1ccc(F)cc1	3.7	-1.2	·	·	-15.9	·	-7.9	i
NC(=O)c1ccc(NCCCN2CCOCC2)c([N+](=O)[O-])c1	-26.4	-6.0	4.7	4.1	1.3	·	-3.3	i
C#CCSc1nnc(-c2cc3c(C(F)(F)F)nn(C)c3s2)n1C	·	-3.1	2.1	-1.0	-6.1	-14.0	2.2	i
Cc1cccc(CN2CCc3c([nH]c4ccccc34)C2)c1	11.1	25.5	1.8	4.1	1.5	-19.4	6.4	i
CCOc1cc(C(=O)NCc2ccncc2)cc(OCC)c1OCC	9.0	0.2	-1.1	0.6	-7.4	-5.0	3.0	i
COCCCn1c(CCC(=O)O)ccc1-c1cccs1	·	-6.1	-5.5	0.6	14.6	-14.7	13.5	i
Cn1c(=O)oc2cc(S(=O)(=O)N3CCC(C(=O)NCCc4ccccc4)CC3)ccc21	7.7	11.5	-0.6	2.5	-4.5	·	-1.4	i
